Sfp inh = inhibitors of Bacillus subtilis Sfp phosphopantetheinyl transferase; Q9F4F7; Biochemical Sfp PPTase activity, qHTS; Potency, µM, inactives show max response, negative = inhibition, most hits filed as inhibitors; hit rate 3.5% among 310,000; AID 1490; active means well fitted inhibition curve with a large enough effect; inconclusive means small, poorly fitted or top-dose-only effect, or another doubt; inactive means no such curve, though single readings can be large or run the other way;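 further: the enzyme is Sfp with the accession as filed and its product quenches rhodamine fluorescence; potency means the concentration at half of the fitted maximal effect; 0% = enzyme reaction without inhibitor and -100% = no enzyme wells; top concentration of the series not given in the record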
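Sfp 15 nM + cpd, 15 min RT; start w/ rhodamine-CoA 5 uM, BHQ-2-YbbR 12.5 uM (final); 50 mM Hepes pH 7.6, 10 mM MgCl2, 0.01% NP-40, 0.01% BSA; read 525/598 nm at 0 and 30 min.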
TRPV1 PAM = potentiators of human vanilloid receptor 1 (TRPV1) | Q8NER1 | TRPV1-expressing cells, Fluo-8 calcium influx, capsaicin EC20 potentiation; host cell line not named in the record; control for the full effect not named in the record | potentiation, % at 8.33 µM | hit rate 0.02% among 320,000 | AID 540277; active means potentiation above 80%; inconclusive means 30% to 80%; inactive means below 30%; further: 0% is about no effect
Target sequence (Q8NER1 whole entry, looked up): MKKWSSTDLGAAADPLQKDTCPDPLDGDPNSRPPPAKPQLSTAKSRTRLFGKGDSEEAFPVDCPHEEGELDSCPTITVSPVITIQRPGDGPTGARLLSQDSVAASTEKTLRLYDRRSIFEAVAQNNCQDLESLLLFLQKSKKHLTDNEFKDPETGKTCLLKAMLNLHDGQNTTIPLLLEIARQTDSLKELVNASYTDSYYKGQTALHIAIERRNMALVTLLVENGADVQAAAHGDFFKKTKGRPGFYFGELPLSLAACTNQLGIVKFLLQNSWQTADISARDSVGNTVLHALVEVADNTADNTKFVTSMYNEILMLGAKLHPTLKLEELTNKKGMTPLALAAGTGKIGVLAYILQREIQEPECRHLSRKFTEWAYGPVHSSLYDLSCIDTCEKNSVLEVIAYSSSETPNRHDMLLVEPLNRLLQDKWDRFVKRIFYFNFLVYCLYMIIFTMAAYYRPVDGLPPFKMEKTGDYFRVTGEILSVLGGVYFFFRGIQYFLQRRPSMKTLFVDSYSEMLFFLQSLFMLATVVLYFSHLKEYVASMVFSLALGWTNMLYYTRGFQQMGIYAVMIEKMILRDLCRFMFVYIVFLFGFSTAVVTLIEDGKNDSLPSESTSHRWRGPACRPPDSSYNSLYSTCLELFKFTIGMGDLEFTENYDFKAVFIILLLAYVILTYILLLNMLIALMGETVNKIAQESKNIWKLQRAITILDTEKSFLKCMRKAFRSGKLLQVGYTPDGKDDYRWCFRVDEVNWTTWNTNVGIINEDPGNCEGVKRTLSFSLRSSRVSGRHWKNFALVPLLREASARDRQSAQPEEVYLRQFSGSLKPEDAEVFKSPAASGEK
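Cells expressing TRPV1 were dye-loaded with Fluo-8 and read kinetically: 10 s baseline, 3 min after compound (agonist portion), then 2 min after EC20 capsaicin (allosteric enhancer portion). Calcium-bound dye fluorescence at 480/520 nm.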
ClpP mod = qHTS Assay for Activators of ClpP; ATP-dependent Clp protease proteolytic subunit (Bacillus subtilis (strain 168)), P80244; purified B. subtilis ClpP, FRET peptide cleavage, 20 min; Potency, µM (titrated, usually from 57.5 µM), without a hit: at the highest dose activity change, negative = active; hit rate 1.9% among 340,000; AID 651965, 2013; active = well fitted falling curve with a large enough effect; inconclusive = small, poorly fitted or top-dose-only effect; inactive = no such curve, though single readings can be large or run the other way; further: potency means the concentration at half of the fitted maximal effect; the source files actives as falling curves though it sought activators and does not explain the sign; nearly all actives have a fitted effect of over 65% in size; many hits overshoot -100%
Target sequence (P80244 whole entry, looked up): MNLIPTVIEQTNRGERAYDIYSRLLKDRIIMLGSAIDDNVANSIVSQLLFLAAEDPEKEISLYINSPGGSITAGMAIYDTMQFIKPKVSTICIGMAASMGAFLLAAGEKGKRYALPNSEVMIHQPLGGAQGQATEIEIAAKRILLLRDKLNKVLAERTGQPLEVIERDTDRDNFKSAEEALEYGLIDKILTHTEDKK
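Purified B. subtilis ClpP, 10 microg/mL final in Tris/HCl pH8 with KCl, BSA, glycerol and Tween-20, cleaved an Abz/nitrotyrosine-quenched decapeptide. Fluorescence (ex 320, em 430) was read at 0 and 20 min at room temperature. Delta was normalized to 5.8 microM ADEP and DMSO/no-enzyme controls.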
Menin-MLL FL inh = menin-MLL binding inhibition, fluorescein peptide; Fluorescence polarization, fluorescein-MLL peptide displacement from menin; FP activity change, % at 61.4 µM; 290,000 tested, under 10 active; AID 1766; inconclusive = falling polarisation curve, or a change in total fluorescence; inactive = total fluorescence flat and polarisation flat or rising; no compound was filed as active; the % refers to the polarisation; negative = inhibition;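 further: % of control where 0% means no effect; inhibitors lower the polarisation; unlabelled MLL peptide was the positive control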
TRPML1 agonist = agonists of human TRPML1 channel. Q9GZU1. TRPML1-expressing cells, Ca2+ dye fluorescence, FDSS; host cell line not named in the record; reference of the full effect not given here. activation, % (test concentration not listed). hit rate 0.12% among 410,000; in the data active = activation above about 50%; inconclusive = about 30% to 50%; inactive = below about 30%; further: 0% is about no effect; the text of the record puts the active cut at 80%
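In this qHTS format, compounds were pin-transferred onto Ca8-dye-loaded TRPML1-DL cells induced with Tet overnight, and intracellular Ca2+ fluorescence was recorded kinetically for 110 s after a 10 s baseline. A subsequent 4uM final 54-4 (EC80) addition followed by a second 110 s read served as the antagonist phase.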
PINK1 modulator = PINK1 expression modulation. PINK1 immunofluorescence, high-content cytometry, 24 h. Potency, µM (top dose mostly 76.6 µM), for inactives: top-dose activation (PINK1 increase), actives largely listed as activators. hit rate 0.2% among 410,000; active = well fitted activation curve with a large enough effect; inconclusive = small, poorly fitted or top-dose-only effect; inactive = flat fitted curve, though single readings scatter; cell line not stated here;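 further: potency means the concentration at half of the fitted maximal effect; % of control where 0% means no effect; nearly all actives have a fitted effect of over 65% in size; a mitochondrial uncoupler was the plate control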
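Stable cell line treated 24 h with compounds at 5 concentrations (CCCP controls), then fixed and immunostained for PINK1 plus nuclear and cell stains; PINK1 immunofluorescence quantified by laser-scanning microplate cytometry.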
TRPML1 blocker = human mucolipin-1 channel inhibition; Q9GZU1; TRPML1-inducible cells, Ca2+ dye fluorescence, FDSS; active compounds read low; inhibition of EC80 agonist-evoked calcium signal; activity change, negative = inhibition, % (test concentration not listed); hit rate 0.02% among 390,000; in the data active means activity change below about -50%; inconclusive means about -30% to -50%; inactive means above about -30%;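 further: stimulus is agonist 54-4 at its EC80 concentration; on the % scale 0 is the no-effect control and ±100 the full control effect; compound concentration not given in the record; the text of the record puts the active cut at -80%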
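Tet-induced TRPML1-DL cells loaded with Ca8 no-wash calcium dye were read kinetically on FDSS. Compound addition was followed by EC80 agonist 54-4 (4 uM final); inhibition was read over 110 s.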
An asterisk follows results filed as active; ? = inconclusive; . = not tested or not shown; [ ] = dose if it differs, or a comment.

SMILES | Sfp inh | TRPV1 PAM | ClpP mod | Menin-MLL FL inh | TRPML1 agonist | PINK1 modulator | TRPML1 blocker
O=C(c1cc(-c2cccs2)nc2ccccc12)N1CCN(c2ccccc2O)CC1 | -3% | 12 | . | -0.6 | 1.3 | -1.7% | -22
COc1ccc(Cl)cc1NC(=O)CN1CCC(n2nnc3ccccc32)CC1 | 11% | 11 | 0.5% | 2.7 | -0.4 | -1.4% | 3
CCOc1cc(C(C(=O)NCC2CCCO2)N(C(=O)Cn2nnc3ccccc32)c2ccc(OC)c(OC)c2)ccc1O (stereo not drawn) | 12% | 5 | . | -2.4 | -0.4 | 0.9% | 0
COc1cnn(-c2ccccc2)c(=O)c1SCc1ccc(Cl)cc1Cl | ? | 18 | 0.8% | 2.0 | -1.1 | -0.9% | -3
Cc1cc(C)cc(-n2ccnc(NCCc3ccccc3)c2=O)c1 | . | . | -5.1% | . | 1.0 | -1.9% | -22
CCc1nc(SCc2ccccn2)[nH]c(=O)c1C | -7% | 6 | . | -0.2 | 2.1 | 0.5% | 44
COc1cccc(N2CCN(C(c3ccccn3)c3nnnn3C(C)(C)C)CC2)c1 (stereo not drawn) | 8% | -3 | -5.1% | -1.3 | -0.7 | -0.5% | -6
Cc1ccccc1-c1noc(-c2ccc(N3CCCC3)c([N+](=O)[O-])c2)n1 | . | . | -0.8% | . | -0.7 | 0.5% | 41
COc1ccc(NC(=O)/C=C/c2ccccc2[N+](=O)[O-])c(OC)c1 | -12% | -10 | -3.3% | -1.9 | -0.7 | 0.7% | 20
COc1ccc(OC)c(NC(=O)C2CCCN2S(=O)(=O)c2ccc3c(c2)CC(C)N3C(C)=O)c1 (stereo not drawn) | . | . | 1.6% | . | -0.7 | 1.9% | 1
NC(=O)c1c(NC(=O)C(=O)N2CCOCC2)sc2c1CCCC2 | 6% | 16 | 0.1% | -3.6 | 0.7 | -0.5% | 19
Nc1nnc(CCOc2ccccc2Cl)s1 | 16% | 5 | 0.6% | 2.9 | 0.7 | -0.5% | 10
Cc1cc(C(C)(C)C)ccc1OCCOCCN1CCCC1 | -24% | -4 | 0.5% | 4.4 | -0.9 | 2.0% | -3
CN(CC(=O)NCCCn1ccnc1)S(=O)(=O)c1ccc(Cl)cc1 | . | . | -3.0% | . | -0.4 | -1.0% | -8
NS(=O)(=O)c1ccc(CNC(=O)c2ccc3c(c2)OCO3)cc1 | . | . | -11% | . | -0.2 | -0.2% | -9
COc1cc(C)nc(N2CCCC(C(=O)Nc3cc(Cl)ccc3OC)C2)n1 (stereo not drawn) | 2% | -2 | -19% | 0.8 | 0.8 | 3.9% | 50
CCc1nc2ccc(C(=O)NCCc3ccccn3)cn2c1N(C)Cc1ccc(N(C)C)cc1 | . | . | -2.4% | . | -1.3 | -0.5% | .
CC1(C)CC(=O)/C(=C(\O)c2ccccc2)C(=NCCc2ccccc2)C1 | 5% | -19 | -2.4% | . | -0.4 | 3.4% | 9
CCOC(=O)CC1C(=O)NCCN1C(=O)c1cc2c(=O)n3cccc(C)c3nc2s1 (stereo not drawn) | 8% | 6 | 4.0% | 3.0 | -0.6 | 0.3% | 1
CC(=O)NCCC(=O)Nc1ncc(S(=O)(=O)c2ccc([N+](=O)[O-])cc2)s1 | . | 8 | -3.2% | . | 2.0 | 0.0% | -1
COc1ccc(NC(=O)CSc2c(C)nn(-c3nnc(C)c(=O)[nH]3)c2C)cc1 | 50µM* | 10 | 0.2% | -0.7 | 3.7 | -1.2% | 8
C=CCNC(=O)/C=C/c1ccc(C(C)C)cc1 | 2% | 6 | -3.0% | 3.1 | 0.3 | 0.4% | 2
Cc1nn(Cc2ccc(Cl)cc2Cl)c(Cl)c1/C=N/NC(=O)CNc1cccc(C(F)(F)F)c1 | 13% | -5 | . | 1.5 | . | . | .
O=C(CS(=O)(=O)c1ccccc1)Nc1nnc(C(F)(F)F)s1 | 8% | -3 | . | -4.6 | -0.8 | 5.3% | -12
CC(=O)c1cccc(S(=O)(=O)NC(C)C2CC3CCC2C3)c1 (stereo not drawn) | -4% | 30 | . | 5.5 | 1.0 | 3.4% | -9
Cc1nc2nc(C)c(NS(=O)(=O)c3ccc(Cl)s3)c(=O)n2[nH]1 | 6% | 0 | . | 2.4 | 1.1 | -0.9% | 3
COc1ccc(S(=O)(=O)NCCCN2CCOCC2)cc1F | 20% | 2 | -2.2% | . | 0.2 | -1.2% | -8
Cc1c(C(=O)Nc2cccc(C(F)(F)F)c2)sc2nc3n(c(=O)c12)CCCC3 | . | . | 1.3% | . | 0.3 | 0.7% | -11
O=C(COC(=O)C1CCC(=O)N1)Nc1ccc(Oc2ccccc2)cc1 (stereo not drawn) | ? | 2 | . | -0.2 | 0.0 | 1.4% | 10
C=CCNc1nc(NCc2ccccc2)c(C#N)c2c1CN(C)CC2 | -8% | ? | 48% | ? | 1.5 | -0.6% | -7

An excerpt from above, reduced to TRPML1 agonist.
| mol | TRPML1 agonist |
| --- | --- |
| CCOC(=O)CC1C(=O)NCCN1C(=O)c1cc2c(=O)n3cccc(C)c3nc2s1 (stereo not drawn) | -0.6 |
| C=CCNc1nc(NCc2ccccc2)c(C#N)c2c1CN(C)CC2 | 1.5 |

Grouped by structure, those above containing a CF3 group
SMILES | Sfp inh | TRPV1 PAM | ClpP mod | Menin-MLL FL inh | TRPML1 agonist | PINK1 modulator | TRPML1 blocker
Cc1nn(Cc2ccc(Cl)cc2Cl)c(Cl)c1/C=N/NC(=O)CNc1cccc(C(F)(F)F)c1 | 13% | -5 | . | 1.5 | . | . | .
O=C(CS(=O)(=O)c1ccccc1)Nc1nnc(C(F)(F)F)s1 | 8% | -3 | . | -4.6 | -0.8 | 5.3% | -12
Cc1c(C(=O)Nc2cccc(C(F)(F)F)c2)sc2nc3n(c(=O)c12)CCCC3 | . | . | 1.3% | . | 0.3 | 0.7% | -11

Next part.
SMILES | Sfp inh | TRPV1 PAM | ClpP mod | Menin-MLL FL inh | TRPML1 agonist | PINK1 modulator | TRPML1 blocker
CC(C)=C(C#N)c1nc2ccccc2s1 | 0% | -9 | 0.8% | 3.0 | 0.4 | -1.4%[38.3 µM] | 1
Cc1nc2nc(-c3ccco3)nn2c(C)c1Cl | ? | 0 | 21% | 4.7 | -0.6 | 1.1% | -4
Cc1cnc(C(=O)NCC(=O)Nc2ccccc2Br)cn1 | . | 3 | . | . | 1.0 | -3.3% | -5
Cc1ccccc1CN1C2=NCCCN2c2ccccc21 | 0% | 0 | 1.6% | 7.2 | 0.1 | -3.8%[38.3 µM] | -12
O=C(Cc1nnc(NC(=O)Nc2ccccc2)s1)Nc1ccccc1 | 5% | 28 | 1.0% | 3.6 | 2.9 | 0.2% | 16
NC(=O)c1ccc(NC(=O)COC(=O)C23CC4CC(CC(C4)C2)C3)cc1 | . | . | -0.5% | . | -0.2 | 2.8% | 0
CCN1C(=O)[C@H]2[C@@H](c3ccc(-c4ccc(Cl)c(Cl)c4)c(OC)c3)N[C@@](Cc3ccccc3)(C(=O)OC)[C@H]2C1=O | . | 6 | -25% | . | -0.6 | -0.5% | 1
COC(=O)C(CC(C)C)NC(=O)CNC(=O)c1ccccc1C (stereo not drawn) | 10% | 3 | 0.0% | 3.2 | -0.7 | -1.0% | 7
O=C(NCC1CCN(Cc2ccccc2Cl)CC1)Nc1ccccc1F | 5% | -9 | -0.4% | -2.5 | -1.1 | -0.6% | 19
CCc1ccccc1NC(=O)CN(C)C(=O)CSc1nc2cc(Cl)ccc2s1 | 2% | -7 | 1.2% | 4.2 | 0.8 | 17% | 28
CCOC(=O)N1CCc2c(sc3c2c(=O)n(-c2ccccc2)c(=O)n3CC(=O)Nc2ccc(OC)cc2OC)C1 | . | . | 0.7% | . | -0.2 | 1.3% | -5
Nc1ccc(Oc2ccc3nc(-c4ccccc4)c(-c4ccc([N+](=O)[O-])cc4)nc3c2)cc1 | 18% | 7 | 1.7% | -1.6 | -1.0 | 1.2% | 1
CC1Nc2ncnc(N3CCN(c4ccccc4)CC3)c2N(Cc2ccc(Br)cc2)C1=O (stereo not drawn) | . | 16 | -2.5% | . | -0.3 | 0.9% | 24
COc1ccc2nc(SC)c(C#N)cc2c1 | -3% | 1 | . | 10 | 0.8 | 0.7% | -3
CN(C)S(=O)(=O)c1ccc(S(=O)(=O)NC2CCOC(C)(C)C2)cc1 (stereo not drawn) | 2% | 16 | -0.7% | 6.1 | 0.1 | -1.7%[38.3 µM] | 20
CN(C)CCCNC(=O)C[C@H]1C[C@H](C(=O)N2CCCCC2)[C@@]2(CCc3ccccc3)c3[nH]c4ccc(Cl)cc4c3CCN2C1=O | . | . | -3.5% | . | -0.2 | -0.2% | -12
O=C1ON=C(c2ccccc2)/C1=C/c1cccnc1 | 12% | 11 | -4.2% | -0.2 | 0.1 | 2.5% | 23
COc1ccc2c(c1)c(C(=O)N/N=C/c1cccc(O)c1)c(C)n2C | -10% | 0 | 1.6% | 0.9 | 0.3 | -0.6% | 6
CC(C)(C)C(=O)O/N=C(\N)c1ccc(-c2csnn2)cc1 | 9% | -2 | . | 2.4 | 1.6 | 0.9% | -11
CC(O)(c1ccccc1)c1nc(-c2ccc(S(C)(=O)=O)cc2)cs1 (stereo not drawn) | . | . | -12% | . | 0.0 | 2.2% | .
CN(C)c1ccc(/C=C/c2ccnc3ccccc23)c(F)c1 | . | . | 1.1% | . | 10 | 8.5% | .
CC(=O)Nc1ccc(C)cc1 | . | -1 | -21% | . | 0.0 | 0.0% | 10
CC(C)c1ccccc1NC(=O)COC(=O)c1ccc(Cl)c(S(=O)(=O)N2CCCCCC2)c1 | -3% | -7 | -1.5% | 2.8 | 1.4 | 0.6% | 17
COc1ccccc1C(=O)Nc1ccccc1SCc1cc(=O)c2ccccc2[nH]1 | . | . | 2.7% | . | 6.8 | 15% | 6
CC(SCC(=O)Nc1ccccc1)c1nc2ccccc2c(=O)[nH]1 (stereo not drawn) | 11% | -14 | -0.9% | 1.9 | -0.4 | 1.8% | 1
CCOc1ccc(C(=O)C(c2ccccc2)N2CCOCC2)cc1 (stereo not drawn) | -5% | ? | 1.6% | -0.8 | 0.1 | 0.6% | -1
